# Compound activity (PubChem)
# Sa growth 42C – S. aureus growth inhibition; AID 720641; hit rate 0.53% among 170,000; relative growth, % (no concentration beside the values); S. aureus RN4220 growth, OD600, 20 h, 42 °C; stronger effect = lower value;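 active = growth at 42 °C up to 50% and 20 or more points under that at 30 °C, or under 10% at both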;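 note: 300 nL library stock went into each well; scaled to the means of positive and negative controls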
# HCMV UL50-53 inh – disrupts HCMV UL50-UL53 complex binding; HTRF UL50-UL53 interaction, normalized percent inhibition; inhibition, % (concentration not given with the values); hit rate 0.15% among 190,000; AID 1918969;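 active = both replicates at 50% or more, plus weaker picks with an unusually low signal ratio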;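 note: stock transfer was 100 nL into about 20 µL; 0% = negative control wells and 100% = wells with untagged competitor protein; inactives centre near -12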
# GIV Gai3 FP – GIV-Galpha-i interaction inhibition | P08753 | Galpha-i3/FITC-GIV peptide fluorescence polarization, 90 min; stronger effect = lower value; scaled: aluminum fluoride 0%, vehicle 100% | percent of control (FP), % (concentration not given with the values) | hit rate 0.42% among 210,000;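 active = replicate mean at 85% of control or lower, very high polarization wells dropped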;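 note: wells of about 15 µL received 100 nL stock; the first replicate is given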
# Target sequence (P08753 whole entry, looked up): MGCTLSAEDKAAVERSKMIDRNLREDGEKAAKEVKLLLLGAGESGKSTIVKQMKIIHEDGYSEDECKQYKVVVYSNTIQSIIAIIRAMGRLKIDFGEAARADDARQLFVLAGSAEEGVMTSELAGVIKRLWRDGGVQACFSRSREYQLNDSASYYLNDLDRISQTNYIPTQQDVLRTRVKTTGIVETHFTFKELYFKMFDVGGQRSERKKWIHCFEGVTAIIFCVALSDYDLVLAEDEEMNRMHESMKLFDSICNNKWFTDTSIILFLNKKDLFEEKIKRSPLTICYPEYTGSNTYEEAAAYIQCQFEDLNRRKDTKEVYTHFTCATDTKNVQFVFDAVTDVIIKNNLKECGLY
# Sa growth 42C second temp – recorded beside Sa growth 42C, whose call it bears; relative growth, %; measured here: growth at 30 °C;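 optical density after 20 h as mean of two plates; 100% = untreated growth and lower means inhibition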
# Numbers without * were called inactive; nt = no result given.
canonical_smiles,Sa growth 42C,Sa growth 42C second temp,HCMV UL50-53 inh,GIV Gai3 FP
CCOC(=O)C1=C(C)N=c2s/c(=C\c3ccc(Br)o3)c(=O)n2C1c1cc(OC)ccc1OC (stereo not drawn),nt,nt,-30,102
O=C(c1cccc(NC2=NC3CS(=O)(=O)CC3S2)c1)N1CCN(Cc2ccc3c(c2)OCO3)CC1 (stereo not drawn),101,92,-13,100
CC(Oc1ccc(Br)cc1)C(=O)N(Cc1nc(-c2ccccc2)no1)C(C)C (stereo not drawn),83,76,1,109
Cc1cccc(N2CCN(C(=O)c3ccc4c(c3)N(Cc3ccccc3F)C(=O)c3ccccc3S4=O)CC2C)c1 (stereo not drawn),105,99,-15,108
Cc1nc(C(=O)O)nn1-c1cccc(C(F)(F)F)c1,64,79,-21,nt
COc1ccc2c(c1)c1nc3ccccc3nc1n2CC(C)C,94,91,-3,nt
O=C(N/N=C/C=C/c1ccccc1)c1ccccc1O,128,96,-6,108
CCOC(=O)c1cccc(NC(=O)c2cnn(-c3ccccc3)c2-n2cccc2)c1,100,93,-8,101
COc1cc(C(=O)OC(C)C(=O)NCC2CCCCC2)cc(NC(=O)c2ccco2)c1OC (stereo not drawn),116,97,0,nt
CCC1CCCCN1CCCNC(=O)c1ccc2c(c1)N(Cc1cccc(C)c1)C(=O)c1ccccc1S2(=O)=O (stereo not drawn),116,49,-26,102
Cc1nc(-c2ccc(S(=O)(=O)NCc3ccccn3)s2)cs1,77,81,nt,106
O=c1c2ccccc2n(Cc2cccc(Cl)c2)c(=O)n1CCc1ccccc1,97,88,-12,107

# Next part (5 carried over from the part before).
canonical_smiles,Sa growth 42C,Sa growth 42C second temp,HCMV UL50-53 inh,GIV Gai3 FP
CCOC(=O)c1cccc(NC(=O)c2cnn(-c3ccccc3)c2-n2cccc2)c1,100,93,-8,101
COc1cc(C(=O)OC(C)C(=O)NCC2CCCCC2)cc(NC(=O)c2ccco2)c1OC (stereo not drawn),116,97,0,nt
CCC1CCCCN1CCCNC(=O)c1ccc2c(c1)N(Cc1cccc(C)c1)C(=O)c1ccccc1S2(=O)=O (stereo not drawn),116,49,-26,102
Cc1nc(-c2ccc(S(=O)(=O)NCc3ccccn3)s2)cs1,77,81,nt,106
O=c1c2ccccc2n(Cc2cccc(Cl)c2)c(=O)n1CCc1ccccc1,97,88,-12,107
CCN1C(=O)c2ccccc2S(=O)c2ccc(C(=O)NCc3ccccc3OC)cc21 (stereo not drawn),102,79,-22,100
COc1ccc(N(C(=O)c2cccc(C)c2)S(=O)(=O)c2ccc(Cl)cc2)cc1,97,89,-14,106
CC(C)OC(=O)CSc1nc2c(c(C3CC=CCC3)c1C#N)CCC2 (stereo not drawn),nt,nt,-28,102
CCOc1cccc(/C=C2\SC(=S)N(CC)C2=O)c1O,101,89,-21,nt
CC(=O)NC(Nc1cccc(F)c1)(C(F)(F)F)C(F)(F)F,96,91,-12,101
Cc1ccc2nc(COc3ccc(NC(=O)COc4ccccc4F)cc3)cc(=O)n2c1,116,103,nt,101
COc1ccccc1NC(=O)C1=C(C)Nc2nc(CCCO)nn2C1c1cccc(O)c1 (stereo not drawn),101,101,26,103
Cn1cc(Br)c(-c2cccc(NC(=O)CC(C)(C)CC(=O)O)c2)n1,108,81,-22,101
CCCn1c(=O)c(C(=O)NCCc2ccccc2)c(O)c2ccccc21,112,82,nt,100
COc1cc(OC)c(NC(=O)CC(c2cccs2)N2Cc3ccccc3C2=O)cc1Cl (stereo not drawn),97,91,nt,102
C=CCN(CC=C)Cn1[nH]c(-c2cccs2)nc1=S,38*,77*,-42,nt
Cc1ccc(NC(=O)CCN2CCN(CCO)CC2)cc1C,100,88,-3,108
CN(C)c1cccc(C(=O)N/C=C/n2cnc3cc(C(F)(F)F)ccc32)c1,98,78,-40,nt
O=C1OCCC1Sc1nnc(Cc2cccs2)n1C1CCCCC1 (stereo not drawn),97,97,-2,nt
CCCCNC(=O)C1CCC(CNS(=O)(=O)c2ccc(C)cc2)CC1 (stereo not drawn),119,92,nt,101
O=C(OCC(=O)N1CCCC1=O)c1ncc(Cl)c(Cl)c1Cl,96,95,6,nt
Cc1csc2nc(CSc3ccc(Cl)cc3)c(Br)n12,95,92,nt,100
CCn1c(=O)c2sccc2n2c(CCC(=O)N3CCN(c4ccccn4)CC3)nnc12,nt,nt,-15,93
COc1ccc(-c2nn3c(-c4cccnc4)nnc3s2)cc1,nt,nt,-3,102
CCOC(=O)c1c(NC(=O)CSc2cn(CCNC(=O)c3ccc(OCC)cc3)c3ccccc23)sc2c1CCC2,95,85,-12,104
O=C(O)C12C3C4C1C1C2C3C41C(=O)O (stereo not drawn),89,84,-13,99
N#CCOC(=O)c1ccccc1C(=O)c1cccs1,86,91,-41,nt
Cc1cc(N2S(=O)(=O)c3ccccc3S2(=O)=O)ccc1Br,107,66,7,101
CN(C)c1ccc(C=Nc2ccc3[nH]c(=O)[nH]c3c2)cc1,83,82,-38,nt
CC[N+]1(CC)Cc2cc3ccccc3cc2C1,109,85,nt,101
O=C(Oc1c(-c2ccco2)oc2ccccc2c1=O)c1cccs1,140,99,-6,104
O=C(Oc1cccc(-n2cnnn2)c1)C(c1ccccc1)c1ccccc1,nt,nt,-32,107
CCN(CC)c1cc(-c2cccs2)nc(SCC(=O)c2cccs2)c1C#N,90,83,2,nt
CC1(C)CC(NC(=O)c2ccc3c(c2)OCO3)CC(C)(C)N1,89,90,-13,nt
COC(=O)c1cn(-c2ccccc2)nc1-c1ccccc1,81,79,-40,nt
COc1ccc(C2OCCCO2)c(Cl)c1OC,113,93,-6,99
Cc1ccc(S(=O)(=O)Cc2nc(-c3ccc(C(=O)NCc4ccccc4C)cc3)oc2C)cc1,137,92,nt,101
Cc1ccc(Oc2ccc3c(c2)C(=O)N(CC2CCCO2)C3=O)cc1 (stereo not drawn),116,89,-37,109
CCOC(=O)Cc1csc(NC(=O)COc2c(C)cccc2C)n1,99,95,-16,104
CN1C(=O)C2CCCCN2c2ccc(C(=O)NCCN3CCOCC3)cc21 (stereo not drawn),nt,nt,-25,104
Cc1ccc(CNC(=O)c2nc(SCc3ccccc3C)ncc2Cl)cc1,99,93,-4,101
CCOC(=O)CSc1nnc2n(-c3ccccc3)c(=O)c3c4c(sc3n12)COC(C(C)C)C4 (stereo not drawn),98,85,-13,102
Cc1ccccc1C(C(=O)Nc1ccc(F)cc1)N(Cc1ccco1)C(=O)Cn1nnc2ccccc21 (stereo not drawn),83,113,13,98
NS(=O)(=O)c1ccc(CC(=O)O)cc1,111,101,-6,102
COc1cccc(C(=O)Nc2ccccc2-c2nnc(-c3cc(OC)ccc3Br)o2)c1,98,89,-20,104
O=S(=O)(c1cccc2nsnc12)N1CCOCC1,92,81,-127,97
O=C1/C(=C/c2cccc(Br)c2)SC(=S)N1CC(=O)N1CCCc2ccccc21,73,101,nt,96
Cc1nc(CCNC(=O)c2ccc(Br)o2)cs1,nt,nt,-28,100
COc1cc(OC)cc(C(=O)N[C@H](C(=O)NCc2ccco2)C(C)C)c1,91,92,-8,nt
CN(C)c1ccc(C(CNC(=O)NC2CCCCC2)N2CCc3ccccc32)cc1 (stereo not drawn),100,102,-1,110
COc1ccc(-c2nn3c(NCCC(C)C)cc(C)nc3c2C)cc1OC,nt,nt,-26,107
CCCC(=O)N1c2nc(-c3ccco3)nn2C2(CCCCC2)[C@@H]2CCCC[C@@H]21,102,94,-7,97
COc1cc(CN2CC(C)CC(C)C2)cc(I)c1O (stereo not drawn),104,104,-1,110
Cc1ccc(-n2c(=O)[nH]c3cc(C(=O)NCc4ccccc4)ccc3c2=O)cc1,97,86,-8,102
CN(C)/C=C/C=C1\CCCC1=O,87,54,2,103
CC(OC(=O)C1CCN(C(=O)Nc2ccccc2)CC1)C(=O)Nc1ncc(Cl)cc1Cl (stereo not drawn),98,81,-26,nt
O=c1c2c3c(sc2n2cnnc2n1CCc1ccccc1)CCCC3,94,98,4,108
CCc1cccc(NC(=O)Cn2c(=O)n(CCc3ccc(OC)c(OC)c3)c(=O)c3ccccc32)c1,98,93,-3,106
O=c1ccc(-c2ccc(S(=O)(=O)Nc3ccccc3)o2)n[nH]1,101,86,-108,108
CCC(=O)Nc1c2c(nn1-c1ccc(C)cc1C)CSC2,97,80,-34,101
COc1cccc(NC(=O)Cc2noc3ccc(C)cc23)c1,99,86,-13,107
COc1ccc2cc3c(NC(=O)COc4cccc(C)c4)n[nH]c3nc2c1,111,90,-19,104
Cc1c(Cl)cccc1NC(=O)NCC(C)C,91,96,-24,101
Cc1c(C(=O)Nc2ccc(C(C)C)cc2)sc2ncn(CC(=O)Nc3cccc(C(F)(F)F)c3)c(=O)c12,nt,nt,-9,103
CC1(C)CC(=O)C2=C(C1)N(CC(=O)O)C1=C(C(=O)CC(C)(C)C1)C2c1ccccc1,102,71,-22,103

# Next compounds follow.
canonical_smiles,Sa growth 42C,Sa growth 42C second temp,HCMV UL50-53 inh,GIV Gai3 FP
CC(C)(C)c1ccc(OCC(=O)N2CCN(c3ccc(O)cc3)CC2)cc1,105,74,-16,nt
O=C(C1CCCCC1)N1CCN(Cc2ccccc2)CC1,105,94,4,101
COc1ccc(C2=Nc3ccccc3N(Cc3cccc(OC)c3)C(=O)C2)cc1,nt,nt,-15,99
O=C(Cn1c(CO)cnc1SCC(=O)N1CCc2ccccc21)NC1CCCC1,nt,nt,-27,105
O=S(=O)(Cc1ccccc1)C1CCCCC1O (stereo not drawn),105,89,-8,100
Cc1nnc(N2CCN(c3ccccc3)CC2)c2c1nnn2Cc1ccc(F)cc1,93,88,-34,102
CN(C)CC(C)(C)CNc1ccc(S(=O)(=O)N2CCCC2)cn1,112,105,18,nt
O=C(Nc1nnc(S(=O)(=O)N2CCOCC2)s1)c1cccc(F)c1,109,50,-4,103
CCc1ccc(NC(=O)N(Cc2ccco2)C2CCN(C(C)=O)CC2)cc1,106,92,-27,101
CCS(=O)(=O)c1ncc(N(Cc2ccco2)Cc2sccc2C)c(C(=O)Nc2cc(C)ccc2C)n1,95,90,5,104
CN(C)C(=O)c1cccn1-c1ncc(C(F)(F)F)cc1Cl,nt,nt,-10,112
CCOc1cc(C2Nc3ccccc3NC3=C2C(=O)CC(c2ccc(OC)c(OC)c2)C3)cc(Br)c1O (stereo not drawn),nt,nt,-21,98
COc1ccc(Cl)cc1NC(=O)CSC1=Nc2ccccc2C2=NC(CC(=O)NCc3ccc4c(c3)OCO4)C(=O)N12 (stereo not drawn),94,79,-1,101
COc1ccccc1Cn1cc(C(=O)c2ccc(F)cc2)c(=O)c2cc3c(cc21)OCO3,100,85,-19,99
CCCNC(=O)c1ccc(NC(=O)CN2CC(=O)N3CCCCC3C2=O)cc1 (stereo not drawn),nt,nt,-14,102
C=CCN=C1NN(c2ccc3c(c2)OCCO3)C(C(=O)Nc2ccccc2)=C(C)S1,85,90,-7,nt
O=C(CNCCO)N1N=C(c2cccs2)CC1c1cccs1 (stereo not drawn),61,91,0,96
Cc1ccc(C)c(-c2[nH]c3c(c2-c2c(-n4cccc4)n(C)c(=O)n(C)c2=O)c(=O)n(C)c(=O)n3C)c1,96,86,-22,105
COc1ccc(N2C(=O)c3c(c4ccccc4n3C)C2c2ccc(NC(C)=O)cc2)cc1 (stereo not drawn),86,76,0,100
Cc1cc(NC(=O)NN2CCOCC2)nn1-c1c(Cl)cccc1Cl,104,94,-28,103
CCN=C1S/C(=C\c2ccc(-c3cccc(C(=O)O)c3)o2)C(=O)N1CC,107,82,nt,126
CC1=C(C#N)C(c2ccccc2C(F)(F)F)C2=C(CCCC2=O)N1 (stereo not drawn),104,92,-23,108
Cc1ccc(N(C(=O)C(F)(F)F)C(C(=O)NC2CCCC2)c2cccs2)cc1F (stereo not drawn),118,87,-8,nt
O=C(c1ccccc1)N1CCN(c2ncnc3c2c(-c2ccccc2)cn3-c2ccccc2)CC1,nt,nt,-6,110
O=C(CN1C(=O)CS/C1=C\c1nc2ccccc2s1)c1cc2ccccc2o1,100,97,-18,nt
Cc1nc(COC(=O)c2cccc(S(=O)(=O)N3CCc4ccccc43)c2)cs1,101,100,-13,nt
COc1ccc2[nH]c3nc(=S)[nH]nc3c2c1,137,94,nt,98
O=S(=O)(c1ccc2nc(NC3CCCCC3)ccc2c1)N1CCCCC1,nt,nt,1,103
COC(=O)c1sccc1-c1ccc(/C(C)=N/NC(N)=O)o1,93,87,-29,106
O=C(Nc1ccc(F)c(Cl)c1)Nc1cc(NC(=O)c2ccccc2Cl)ccc1N1CCCCC1,nt,nt,-8,102
CN(Cc1ccccc1)C(=O)C1CCCN(S(=O)(=O)c2ccc3c(c2)NC(=O)CO3)C1 (stereo not drawn),nt,nt,-16,105
Cc1ccc(N(CC#N)C(=O)Nc2ccc(Cl)cc2)cc1,103,94,-26,nt
CCCc1nc2c([nH]1)C(c1cccc(O)c1)C(C#N)=C(N)O2 (stereo not drawn),93,82,-1,nt
